Screens: PubChem BioAssay, National Center for Advancing Translational Sciences (NCATS)
TRPV1 potentiator = enhances activation of the human vanilloid receptor TRPV1. 320,000 compounds, 0.02% hits. potentiation, % at 8.33 µM. Q8NER1. AID 540277. TRPV1-expressing cells, Fluo-8 calcium influx, capsaicin EC20 potentiation; host cell line not named in the record; control for the full effect not named in the record; active means potentiation above 80%; inconclusive means 30% to 80%; inactive means below 30%; further: 0% is about no effect
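Cells expressing TRPV1 were dye-loaded with Fluo-8 and read kinetically: 10 s baseline, 3 min after compound (agonist portion), then 2 min after EC20 capsaicin (allosteric enhancer portion). Calcium-bound dye fluorescence at 480/520 nm.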
TRPML1 agonist = agonists of human TRPML1 channel; Q9GZU1; TRPML1-expressing cells, Ca2+ dye fluorescence, FDSS; host cell line not named in the record; reference of the full effect not given here; activation, % (no concentration beside the values); 410,000 compounds, 0.12% hits; AID 624414; in the data active = activation above about 50%; inconclusive = about 30% to 50%; inactive = below about 30%; further: 0% is about no effect; the text of the record puts the active cut at 80%
Target sequence (Q9GZU1 whole entry, looked up): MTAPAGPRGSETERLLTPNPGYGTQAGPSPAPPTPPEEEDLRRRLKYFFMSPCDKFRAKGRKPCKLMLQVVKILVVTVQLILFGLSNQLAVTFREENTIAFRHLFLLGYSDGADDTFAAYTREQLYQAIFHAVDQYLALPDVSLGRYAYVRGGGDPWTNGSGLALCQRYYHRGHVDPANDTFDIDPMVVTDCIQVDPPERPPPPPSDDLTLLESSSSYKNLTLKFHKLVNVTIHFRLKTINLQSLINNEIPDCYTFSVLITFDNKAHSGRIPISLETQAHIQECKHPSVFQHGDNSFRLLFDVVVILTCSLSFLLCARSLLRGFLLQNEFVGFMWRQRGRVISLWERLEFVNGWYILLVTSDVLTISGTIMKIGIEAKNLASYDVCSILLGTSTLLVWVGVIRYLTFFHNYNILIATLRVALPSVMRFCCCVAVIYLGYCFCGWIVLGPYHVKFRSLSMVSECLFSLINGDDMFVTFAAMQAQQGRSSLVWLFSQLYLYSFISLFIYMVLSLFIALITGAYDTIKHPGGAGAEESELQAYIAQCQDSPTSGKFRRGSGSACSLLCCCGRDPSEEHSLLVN
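Tetracycline-induced TRPML1-DL cells are seeded and incubated overnight before loading with a no-wash Ca2+ dye and quencher. Agonist activity is taken from the 110 s fluorescence read following compound pin-transfer on an FDSS, before EC80 54-4 challenge.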
PINK1 modulator = modulators of PINK1 expression; AID 624263; 410,000 compounds, 0.2% hits; PINK1 immunofluorescence, high-content cytometry, 24 h; Potency, µM (titrated, usually from 76.6 µM), for the others: at the highest dose activation (PINK1 increase), actives largely listed as activators; active = well fitted activation curve with a large enough effect; inconclusive = small, poorly fitted or top-dose-only effect; inactive = flat fitted curve, though single readings scatter; cell line not stated here;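 further: potency means the concentration at half of the fitted maximal effect; % of control where 0% means no effect; nearly all actives have a fitted effect of over 65% in size; a mitochondrial uncoupler was the plate control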
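Measures PINK1 amount and localization on or inside mitochondria by immunofluorescence. Stable cells get compounds at 5 concentrations for 24 hours before fixation and staining; CCCP controls included.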
Sfp inh = inhibitors of Bacillus subtilis Sfp phosphopantetheinyl transferase | Biochemical Sfp PPTase activity, qHTS | Potency, µM, for inactives: max response, negative = inhibition, most hits filed as inhibitors | 310,000 compounds, 3.5% hits | AID 1490; active means well fitted inhibition curve with a large enough effect; inconclusive means small, poorly fitted or top-dose-only effect, or another doubt; inactive means no such curve, though single readings can be large or run the other way;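 further: the enzyme is Sfp with the accession as filed and its product quenches rhodamine fluorescence; potency means the concentration at half of the fitted maximal effect; 0% = enzyme reaction without inhibitor and -100% = no enzyme wells; top concentration of the series not given in the record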
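After 15 min at room temperature with compound, 15 nM Sfp received 5 uM rhodamine-CoA plus 12.5 uM BHQ-2-ybbR (50 mM Hepes pH 7.6, 10 mM MgCl2). Rate came from the fluorescence difference over 30 min, ex 525/em 598 nm.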
ClpP mod = qHTS Assay for Activators of ClpP. ATP-dependent Clp protease proteolytic subunit (Bacillus subtilis (strain 168)), P80244. purified B. subtilis ClpP, FRET peptide cleavage, 20 min. Potency, µM (doses to about 57.5 µM), for the others: top-dose activity change, negative = active. 340,000 compounds, 1.9% hits. AID 651965, 2013; active = well fitted falling curve with a large enough effect; inconclusive = small, poorly fitted or top-dose-only effect; inactive = no such curve, though single readings can be large or run the other way; further: potency means the concentration at half of the fitted maximal effect; the source files actives as falling curves though it sought activators and does not explain the sign; nearly all actives have a fitted effect of over 65% in size; many hits overshoot -100%
Target sequence (P80244 whole entry, looked up): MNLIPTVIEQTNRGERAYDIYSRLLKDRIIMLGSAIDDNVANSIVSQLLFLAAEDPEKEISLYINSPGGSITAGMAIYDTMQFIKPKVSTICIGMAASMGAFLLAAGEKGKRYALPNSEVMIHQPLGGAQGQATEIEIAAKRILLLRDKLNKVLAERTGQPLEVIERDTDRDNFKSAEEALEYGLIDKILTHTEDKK
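Purified B. subtilis ClpP, 10 microg/mL final in Tris/HCl pH8 with KCl, BSA, glycerol and Tween-20, cleaved an Abz/nitrotyrosine-quenched decapeptide. Fluorescence (ex 320, em 430) was read at 0 and 20 min at room temperature. Delta was normalized to 5.8 microM ADEP and DMSO/no-enzyme controls.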
TRPML1 blocker = blocks the human TRPML1 channel; Q9GZU1; 390,000 compounds, 0.02% hits; TRPML1-inducible cells, Ca2+ dye fluorescence, FDSS; stronger effect = lower value; inhibition of EC80 agonist-evoked calcium signal; activity change, negative = inhibition, % (concentration not given with the values); in the data active means activity change below about -50%; inconclusive means about -30% to -50%; inactive means above about -30%;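 further: stimulus is agonist 54-4 at its EC80 concentration; on the % scale 0 is the no-effect control and ±100 the full control effect; the text of the record puts the active cut at -80%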
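Tet-induced TRPML1-DL cells loaded with Ca8 no-wash calcium dye were read kinetically on FDSS. Compound addition was followed by EC80 agonist 54-4 (4 uM final); inhibition was read over 110 s.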
Menin-MLL FL inh = menin-MLL binding inhibition, fluorescein peptide; FP activity change, % at 61.4 µM; Fluorescence polarization, fluorescein-MLL peptide displacement from menin; AID 1766; 290,000 tested, under 10 active; inconclusive = falling polarisation curve, or a change in total fluorescence; inactive = total fluorescence flat and polarisation flat or rising; no compound was filed as active; the % refers to the polarisation; negative = inhibition;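 further: % of control where 0% means no effect; inhibitors lower the polarisation; unlabelled MLL peptide was the positive control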
Active calls of the source: *; ? = inconclusive; . = no result given; & = joins results of further samples; [ ] = remark or other dose.

SMILES	TRPV1 potentiator	TRPML1 agonist	PINK1 modulator	Sfp inh	ClpP mod	TRPML1 blocker	Menin-MLL FL inh
COC(=O)c1sccc1NC(=O)c1ccc(Cl)s1	0.1	2.0	9.8%[38.3 µM]	15.6%	6.2%	32.3	1.0
CC(Oc1ccc2c(-c3ccccc3)cc(=O)oc2c1)C(=O)O (stereo not given)	-4.6	0.2	1.3%[38.3 µM]	1.5%	-12.1%	55.8	-3.0
Cc1cccc(C(=O)NNC(=O)C2CCCO2)c1 (stereo not given)	.	0.8	0.2%	3.1%	-0.8%	-16.4	0.1
CC(=O)c1ccc(N2CCN(S(=O)(=O)c3c(C)nc4sc(C)cn4c3=O)CC2)cc1	.	-0.6	5.7%	.	-13.8%	-6.3	.
CCc1ccc(-c2nc(CS(=O)CC(=O)NCCc3ccc(C)cc3)c(C)o2)cc1 (stereo not given)	.	-0.2	1.0%	.	-4.6%	-3.1	.
Cc1cc(C)cc(NC(=O)c2oc3ccc4c(c3c2C)C(=O)CC(C)(C)O4)c1	.	0.1	4.8%	.	-18.5%	29.5	.
O=C(COCc1cc(-c2cccs2)on1)Nc1cc(C(F)(F)F)ccc1Cl	.	1.4	4.2%	.	-2.4%	-5.3	.
O=C(CSc1nnc(CNc2ccc(F)cc2)o1)N1CCN(C(=O)c2ccco2)CC1	-1.1	0.3	-3.3%[38.3 µM]	4.4%	0.0%	3.5	-2.1
Cc1c(C(=O)NC2CCCc3ccccc32)oc2ccc(S(=O)(=O)N3CCCC3)cc12 (stereo not given)	10.6	0.3	6.3%[38.3 µM]	11.6%	-0.6%	-11.1	0.5
Cc1ccc(C(=O)NN=C2CCCC2)cc1C	.	0.4	4.2%	.	.	-22.2	.
O=C(CSc1n[nH]c(=O)n1C1CC1)Nc1cc(Cl)ccc1Oc1ccccc1	-21.0	0.3	-1.7%	-3.7%	0.2%	48.4	1.6
Cc1cccc(OCC(=O)NC(Cc2c[nH]c3ccccc23)C(=O)O)c1C (stereo not given)	6.8	-0.4&2.2	0.7%&1.0%	50.1µM*	-1.8%	-19.1&13.2	-1.3
CCn1c(=S)[nH]c2c(c1=O)C(C)(C)Cc1ccccc1-2	-4.5	0.1	1.4%	16.6%	-0.4%	5.9	2.5
COc1ccc(OC)c(/C=N/NC(=O)C(=O)N/N=C/c2cc(OC)ccc2OC)c1	.	-0.1	10.3%	.	.	22.0	.
Cn1nccc1NC(=O)Nc1cccc(Cl)c1	-27.5	0.0	-1.5%	4.8%	.	2.7	4.4
O=C(c1cc(S(=O)(=O)NCc2ccco2)ccc1Br)N1CCOCC1	-4.2	-0.5	2.5%	.	-0.4%	-2.6	.
COC(=O)C1=C(C)N(Cc2ccco2)C(=O)N[C@H]1c1ccc(Br)cc1	13.1	.	.	?	.	.	-0.4&5.2
COC(=O)N1CCCc2cc(S(=O)(=O)NCc3ccccc3)ccc21	.	2.6	1.1%	.	1.0%	-25.1	.
Cc1ccc(C(=O)C(C)OC(=O)CNS(=O)(=O)c2ccc(C)cc2)cc1 (stereo not given)	7.8	1.0	-1.5%	.	-0.4%	-9.4	.
O=C(CC1Nc2ccccc2NC1=O)NCCCN1CCCCCC1 (stereo not given)	9.3	-0.3	1.3%	2.5%	-24.8%	1.2	4.2
O=C(COc1ccc(S(=O)(=O)NC2CCCCC2)cc1)NCc1cccnc1	-6.4	-0.2	6.3%[38.3 µM]	10.1%	-1.2%	-16.1	1.2
COc1ccc(-c2c(C(=O)c3ccccc3)[nH]c(N)c2C(N)=O)cc1OC	.	-0.3	-0.8%	.	-4.0%	.	.
CCCCOC(=O)c1ccc(NC(=O)c2cc(-c3ccccc3)on2)cc1	.	-0.9	-0.9%	.	-1.2%	7.9	.
CN(Cc1c(F)cccc1Cl)C(=O)C1CC(=O)N(CCc2ccccc2)C1 (stereo not given)	14.3	0.5	-1.1%	3.5%	.	-1.2	2.3
CC(C)N(Cc1ccccc1)C(=O)CN1C(=O)NC2(CCCc3ccccc32)C1=O (stereo not given)	9.5	0.4	1.9%	4.6%	0.1%	10.6	-1.7
COc1ccc(NC(=O)CN(c2cccc(C(F)(F)F)c2)S(C)(=O)=O)cc1OC	21.8	-0.2	-0.3%	11.9%	-1.5%	39.8	2.1
Cc1ccc(S(=O)(=O)Nc2nc3ccccc3nc2Nc2cccc(S(=O)(=O)N3CCCC3)c2)cc1	-6.0	.	?	4.1%	3.7%	.	?
Cc1cc(N(C(=O)c2ccco2)C(C(=O)NC2CCCCC2)c2ccccc2)ccc1-n1cnnn1 (stereo not given)	-5.4	1.4	3.6%[38.3 µM]	3.7%	1.9%	-26.2	-1.3
Cc1ccc(S(=O)(=O)N2CCN(C(=O)c3cc(=O)c4ccccc4o3)CC2)cc1	15.7	-0.3	-1.4%	9.1%	-3.4%	-12.6	1.2
CCN(/N=C/c1ccccc1)c1cc(=O)n(C)c(=O)[nH]1	-5.6	-0.6	1.6%	2.4%	-1.4%	8.4	-0.6
CC(C)CNc1nc(NC(C)(C)C)nc(Oc2ccc(=O)n(-c3ccccc3)n2)n1	.	3.5	0.8%	.	0.4%	1.5	.
COc1ccc2c(c1)CCc1sc(NC(=O)c3ccc(Cl)cc3)nc1-2	.	0.2	2.7%	.	-27.8%	1.5	.
CCOC(=O)c1cc(C)nc(S(C)(=O)=O)c1C#N	2.0	0.8	5.0%	6.0%	-4.2%	32.9	4.0
COC(=O)CC(NC(=O)CN1CCN(c2ccc(F)cc2)CC1)c1cccc(F)c1 (stereo not given)	-16.2	1.3	3.1%	8.1%	.	-2.0	-4.2
COc1ccc(OCCN(C)CC(=O)Nc2ccccc2SC)cc1	-10.0	0.4	1.6%	8.7%	-0.5%	-2.4	-6.3
O=C(COc1ccccc1Cl)N1CCN(c2ccc([N+](=O)[O-])c(N3CCCCC3)c2)CC1	-14.7	0.0	0.2%[38.3 µM]	11.4%	0.5%	23.9	1.9
O=C(COc1ccc(Br)cc1)NCCNC(=O)c1ccncc1	6.8	-0.2	-2.2%	7.9%	0.9%	1.7	1.7
Cc1cccc(CS(=O)(=O)Cc2ccc(C(=O)NCc3ccc(F)cc3)o2)c1	.	0.1	0.1%	.	0.5%	-16.3	.
O=C(NCCS(=O)(=O)N1CCCC1)c1ccccc1	5.1	1.5	2.1%	.	.	-15.3	.
COc1ccc(N2CCN(C(=O)COC(=O)c3cccc(OC)c3O)CC2)cc1	.	0.1	5.5%	.	.	0.7	.
COC(=O)c1ccc(CSC(=N)N)o1	0.4	-0.6	7.8%	-0.7%	3.7%	-7.7	-1.9
O=C(CCSc1nc(-c2ccco2)cc(C(F)(F)F)n1)NCCc1ccccc1	-7.6	4.2	1.2%	3.6%	-1.8%	11.6	-1.5
COCCCNC(=O)C[C@H]1C[C@H](C(=O)N2CCOCC2)[C@@]2(C)c3[nH]c4ccc(Cl)cc4c3CCN2C1=O	.	-1.1	1.0%	.	1.1%	-11.4	.
O=C(Oc1ccc(N(C(=O)c2ccncc2)S(=O)(=O)c2ccc(F)cc2)cc1)c1ccncc1	5.6	1.2	-0.5%	14.5%	.	-18.9	0.1
CN1C(=O)[C@H]2[C@@H](c3ccc(C(F)(F)F)cc3)N[C@]3(CCCN(Cc4ccc(Br)cc4)C3=O)[C@H]2C1=O	.	-0.5	4.9%	.	0.9%	22.9	.
CCc1ccccc1NC(=O)Cn1nnc(C(=O)NCc2cccc(OC)c2)c1N	9.9	0.4&-0.3	?	5.5%	-1.0%&0.5%	32.1&13.8	-0.1
Cc1cccc(Nc2sc(C(=O)c3cc4cc(Cl)ccc4o3)c(N)c2C#N)c1	-28.8	0.1	0.9%	-9.2%	1.9%	-0.2	-1.6
CC(=O)Nc1ccc(NS(=O)(=O)c2cc(Cl)sc2Cl)cc1	?	1.0	0.5%	5.4%	.	6.0	3.2
Cc1ccc(CN2CCN(CC(=O)NCc3ccccc3)CC2)cc1	-6.4	0.2	0.1%	10.4%	.	5.6	-3.9
O=C(O)CC(c1ccccc1)n1cnnn1 (stereo not given)	-0.6	2.0	-1.4%	10.1%	-3.1%	-11.5	0.6
Cc1ccsc1/C=N/NC(=O)c1cccs1	4.0	0.3	3.1%	2.2%	0.0%	13.1	2.3
CC1(C)Oc2c(ccc(O)c2CN2CCOCC2)C2=C1CCCC2	.	1.8	9.1%	.	-0.3%	-9.8	.
Cc1cc(C)c2nc(N3CCC(C(=O)NCC4CCCO4)CC3)sc2c1 (stereo not given)	-4.5	0.9	-0.1%	4.8%	-1.3%	-18.7	.
CCCn1cnc2c(sc3nc4c(cc32)CSC(C)(C)C4)c1=O	-32.5	0.6	-0.9%[38.3 µM]	11.7%	-1.5%	-4.3	0.7
COc1ccc([C@@H]2[C@@H]3C(=O)N(C(C)(C)C)C(=O)[C@@H]3[C@]3(Cc4ccc(Cl)cc4)C(=O)N(c4cccc(Br)c4)C(=O)N23)cc1	-13.6	-0.5	1.2%	25.1%	-1.0%	3.0	-0.2
CCc1ccc(CNC(=O)c2ccc(-n3c(C)cc4c3CCC(C)C4)cc2)cc1 (stereo not given)	.	0.4	3.7%	.	-11.1%	19.2	.
O=C(CSc1nnc2c(n1)[nH]c1ccccc12)NCc1ccco1	0.1	1.4	2.4%	39.8µM*	-1.1%	33.0	4.8
COc1ccc(NC(=O)COC(=O)c2ccc(S(=O)(=O)N3CCCCCC3)cc2)c(OC)c1	-6.4	-0.4	11.2%	.	1.0%	-4.2	.
CCc1ccccc1NC(=O)CSc1nnc([C@H](CCSC)NC(=O)OC(C)(C)C)o1	-8.3	0.0	-1.0%	10.1%	2.1%	28.7	-2.3
c1ccc(-c2[nH]ncc2CN2CCc3ccccc3C2)cc1	3.9	0.5	1.6%	1.2%	0.0%	10.3	-3.0
O=C1CN(C(=O)N[C@@H](Cc2ccccc2)C(=O)N[C@H](C(=O)O)c2ccccc2)c2ccccc2N1	-7.9	-0.5	-0.5%	9.5%	0.4%	-3.3	0.5
CCCOc1ccc(C2=CC(=O)C[C@H](c3ccc(OC)cc3)C2)cc1	-6.3	2.5	0.6%	.	-2.2%	10.1	.
COc1ccc(CCn2c(N)cc(=O)[nH]c2=O)cc1OC	1.4	-0.2	-0.2%	5.2%	0.4%	3.0	0.0
